Source: PubChem BioAssay
Mtb betalactam: beta-lactam sensitization of Mtb H37Rv, H37Rv; M. tuberculosis H37Rv growth with meropenem, percent inhibition; hits of this screen are not shown here; inhibition, % at 25 µM; 330,000 compounds, 0.27% hits; AID 434955, 2010;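 active means about 74% or more and at least 40 points above the plate without the antibiotic, then above 30% in a dose series; inconclusive means first-round hits that could not be retested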;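 further: growth measured after seven days incubation then overnight dye step; 0% = bacteria only wells and 100% = bacteria with antibiotic; twin plates without the antibiotic show which effects depend on it; some results filed as inactive read as strong as hits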
Mtb H37Rv: M. tuberculosis H37Rv growth inhibitors, H37Rv strain (AID 1626) | M. tuberculosis H37Rv growth inhibition; higher % means a stronger effect | inhibition, % at 10 µM; hits with a dose series show IC50 in µM | 220,000 compounds, 0.95% hits;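 active means confirmed in a dose series; inconclusive means inhibition above 80% but not taken into the dose series; inactive means below 80% or under 30% at every dose of the series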;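 further: bacteria incubated seven days before Alamar blue readout; 0% = bacteria only wells and 100% = bacteria with antibiotic wells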
YopH inh: YopH tyrosine phosphatase inhibitors, primary screen, biochemical, fluorescence Ex485/Em525 | YopH tyrosine phosphatase [Yersinia enterocolitica] | inhibition, %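 (about 10 µM by stock and volumes)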 | 140,000 compounds, 0.16% hits | AID 898, 2007;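 active means inhibition of 50% or more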;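 further: controls were vehicle for no effect and minimum signal wells for full effect; inactives centre near -20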
Arbovirus inh: antivirals against arbovirus infection, primary screen, cell-based, full library, 10K replicate subset. inhibition, % at 10 µM. arbovirus infection cell-based antiviral screen. AID 1251, 2008. 200,000 compounds, 0.37% hits;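 active means inhibition from about 30%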;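 further: bluetongue infection of BSR cells; cell survival read as ATP light after 72 h; 0% = infected wells without compound and 100% = uninfected wells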
RecA intein inh: Mtb RecA intein splicing inhibitors, primary screen, biochemical, fluorescence, HTS; AID 2221, 2009; 290,000 compounds, 0.75% hits; inhibition, %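 (about 9 µM by stock and volumes)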; cell-free RecA intein splicing; Protein RecA (Mycobacterium tuberculosis (strain ATCC 25618 / H37Rv)), P9WHJ3; in the data active means inhibition above about 30%; inconclusive means no clear call, values can overlap the other calls;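 further: 0% = vehicle wells and 100% = reference inhibitor control wells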
Target sequence (P9WHJ3 whole entry, looked up): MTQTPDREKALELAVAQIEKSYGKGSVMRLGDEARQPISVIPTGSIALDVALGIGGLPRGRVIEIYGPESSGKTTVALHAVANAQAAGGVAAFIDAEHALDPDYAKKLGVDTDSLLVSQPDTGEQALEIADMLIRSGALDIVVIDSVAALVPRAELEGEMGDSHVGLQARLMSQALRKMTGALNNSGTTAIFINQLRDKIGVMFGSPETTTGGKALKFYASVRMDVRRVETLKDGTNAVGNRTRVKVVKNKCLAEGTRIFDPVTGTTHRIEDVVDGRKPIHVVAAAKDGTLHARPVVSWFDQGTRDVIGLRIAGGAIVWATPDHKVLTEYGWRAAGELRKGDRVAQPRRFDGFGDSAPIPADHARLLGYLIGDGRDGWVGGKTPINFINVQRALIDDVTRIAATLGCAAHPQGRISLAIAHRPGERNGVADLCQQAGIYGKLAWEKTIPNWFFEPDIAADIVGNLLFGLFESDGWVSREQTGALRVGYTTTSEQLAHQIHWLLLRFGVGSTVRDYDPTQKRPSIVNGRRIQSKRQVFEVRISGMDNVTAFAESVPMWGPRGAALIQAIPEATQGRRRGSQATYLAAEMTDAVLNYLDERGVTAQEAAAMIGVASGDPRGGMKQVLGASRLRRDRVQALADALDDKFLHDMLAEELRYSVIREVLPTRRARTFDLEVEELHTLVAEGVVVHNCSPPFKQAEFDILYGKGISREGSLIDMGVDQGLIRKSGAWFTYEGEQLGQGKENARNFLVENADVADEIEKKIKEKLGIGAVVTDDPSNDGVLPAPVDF
Arbovirus inh repeat: recorded beside Arbovirus inh, whose call it bears; inhibition, %; measured here: 10K subset replicate screen; many hits read low in the repeat;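 first of two repeat runs on a subset; 0% = infected and 100% = uninfected wells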
* marks the source's active call; other numbers are inactive results. Only part of the results is shown; rates above refer to the full screens.

Screening COc1ccc(CN2C(=NC(=O)C3CC3)SC3CS(=O)(=O)CC32)cc1OC (centres undefined) returned Mtb betalactam -3 and RecA intein inh -1.7.
For CCc1nnc(NC(=O)CSc2ccc(-c3ccc(F)cc3)nn2)s1 the results were Mtb betalactam -1, Mtb H37Rv 3%, Arbovirus inh 1 and RecA intein inh -1.2.
O=C(O)CCC(=O)N1N=C(c2ccccc2)CC1c1ccc2nccnc2c1 (centres undefined) was read as Mtb betalactam 4, Mtb H37Rv -8%, YopH inh -21, Arbovirus inh -3 and RecA intein inh -3.3.
Screening COc1c2occc2c(OC)c2c(=O)cc(C(F)(F)C(F)(F)F)oc12 returned Mtb betalactam -5, Mtb H37Rv -7%, YopH inh -37, Arbovirus inh -4 and RecA intein inh -0.9.
Screening Cn1c(=O)[nH]c(=O)c2[nH]c(CN3CCN(C(=O)c4ccco4)CC3)nc21 returned Mtb betalactam -18, Mtb H37Rv 0%, YopH inh -12, Arbovirus inh 2 and RecA intein inh 1.7.
Screening CC(C)NC(=O)CSc1nc(N)c(NC(=O)c2ccccc2F)c(=O)[nH]1 returned Mtb betalactam 1, Mtb H37Rv -2%, YopH inh -16, Arbovirus inh 15 and RecA intein inh -2.9.
O=C(CSc1ccc2nnc(-c3cccnc3)n2n1)Nc1ccccc1 was read as Mtb betalactam inconclusive and RecA intein inh 1.4.
Screening CCCn1c(N)c(N(CCOC)C(=O)c2ccc(N(C)S(=O)(=O)c3ccc(C)cc3)cc2)c(=O)[nH]c1=O returned Mtb betalactam -10 and RecA intein inh 1.7.
COc1ccc(N2C(=O)C3CCCN3C2=S)cc1 (centres undefined) was read as Mtb betalactam 5 and RecA intein inh 0.5.
Cc1ccc(S(=O)(=O)N2CCN(CC(=O)Nc3ccc(N4CCOCC4)cc3)CC2)cc1C was read as Mtb betalactam 1, YopH inh -14, Arbovirus inh -4 and RecA intein inh -3.5.
N/C(Cc1ccc([N+](=O)[O-])cc1)=N\OC(=O)CC1CCCCC1 was read as Mtb betalactam -2, Mtb H37Rv 3%, YopH inh -26, Arbovirus inh 6 and RecA intein inh -1.2.
`CC(C)(C)c1ccc(S(=O)(=O)N2CCC(CO)(CC3CCCCO3)CC2)cc1` (centres undefined) gave Mtb betalactam 0, Mtb H37Rv -4%, Arbovirus inh 5 and RecA intein inh 0.4.
Screening CCn1cc(C(=O)N(CCC(C)C)c2c(N)n(Cc3ccccc3)c(=O)[nH]c2=O)c(=O)c2ccc(C)nc21 returned Mtb betalactam 3, Mtb H37Rv -7%, Arbovirus inh 6 and RecA intein inh 9.6.
COc1ccccc1Nc1nc(N)nc(CN2CCN(Cc3ccccc3)CC2)n1 was read as Mtb betalactam 50, Mtb H37Rv -3%, YopH inh 0, Arbovirus inh 2 and RecA intein inh 0.3.
C=CCOc1ccccc1CN1CCCN(C)CC1 was read as Mtb betalactam 4 and RecA intein inh 4.1.
O=C(Nc1ccccc1C(F)(F)F)c1cc(-c2ccc(O)cc2)on1 was read as Mtb betalactam 92, Mtb H37Rv -2%, YopH inh -43, Arbovirus inh -1 and RecA intein inh 5.6.
`O=C(NCc1ccccc1)C(=O)NCC1COc2ccccc2O1` (centres undefined) gave Mtb betalactam -8, Mtb H37Rv 3%, YopH inh -29, Arbovirus inh -20 and RecA intein inh -11.
For O=c1[nH]c(/C=C/c2ccccc2Cl)c([N+](=O)[O-])c(=O)[nH]1 the results were Mtb betalactam 2 and RecA intein inh -0.3.
Screening COc1ccc(-n2c(C)nc3c(cnn3-c3ccc(Cl)cc3)c2=O)cc1 returned Mtb betalactam -7, Mtb H37Rv 5%, YopH inh -43, Arbovirus inh 3 and RecA intein inh -2.6.
Screening CN(C)S(=O)(=O)N1CCN(C(=O)c2cccc(Br)c2)CC1 returned Mtb betalactam -5, Mtb H37Rv 4%, YopH inh -2, Arbovirus inh 1 and RecA intein inh 2.7.

Looked up by compound from above:
Screening CC(C)NC(=O)CSc1nc(N)c(NC(=O)c2ccccc2F)c(=O)[nH]1 returned Mtb betalactam 1, Mtb H37Rv -2%, YopH inh -16, Arbovirus inh 15 and RecA intein inh -2.9.
Cc1ccc(S(=O)(=O)N2CCN(CC(=O)Nc3ccc(N4CCOCC4)cc3)CC2)cc1C was read as Mtb betalactam 1, YopH inh -14, Arbovirus inh -4 and RecA intein inh -3.5.
For O=c1[nH]c(/C=C/c2ccccc2Cl)c([N+](=O)[O-])c(=O)[nH]1 the results were Mtb betalactam 2 and RecA intein inh -0.3.
Screening CN(C)S(=O)(=O)N1CCN(C(=O)c2cccc(Br)c2)CC1 returned Mtb betalactam -5, Mtb H37Rv 4%, YopH inh -2, Arbovirus inh 1 and RecA intein inh 2.7.
COc1ccccc1Nc1nc(N)nc(CN2CCN(Cc3ccccc3)CC2)n1 was read as Mtb betalactam 50, Mtb H37Rv -3%, YopH inh 0, Arbovirus inh 2 and RecA intein inh 0.3.
Screening COc1ccc(-n2c(C)nc3c(cnn3-c3ccc(Cl)cc3)c2=O)cc1 returned Mtb betalactam -7, Mtb H37Rv 5%, YopH inh -43, Arbovirus inh 3 and RecA intein inh -2.6.

Additional records follow.
For CC(C)CCNC(=O)Cn1c(NCCC(C)C)nc2c1c(=O)n(C)c(=O)n2C the results were Mtb betalactam 10, Mtb H37Rv 4%, YopH inh -19, Arbovirus inh -7, RecA intein inh 0.8 and Arbovirus inh repeat -5.
`CC(C)OCC1CC(CC(=O)NC(=S)Nc2cccc([N+](=O)[O-])c2)C(=O)O1` (centres undefined) gave Mtb betalactam -7, Mtb H37Rv -1%, YopH inh -11, Arbovirus inh -1 and RecA intein inh -0.6.
`COc1ccc(N2CC(C(=O)N/N=C/c3cccs3)CC2=O)cc1` (centres undefined) gave Mtb betalactam -1, Mtb H37Rv -1%, Arbovirus inh -3 and RecA intein inh -0.5.
CCC1S/C(=N\S(=O)(=O)c2cccs2)N(C2CCCCC2)C1=O (centres undefined) was read as Mtb betalactam 0, Mtb H37Rv -5%, YopH inh -12, Arbovirus inh 0 and RecA intein inh 4.0.
Screening Cc1ccc(OCc2cn3cccnc3n2)cc1 returned Mtb betalactam -3, Mtb H37Rv 0%, YopH inh -4, Arbovirus inh 0 and RecA intein inh -2.3.
Screening CN(Cc1ccccc1)C(=O)CCCn1c(=O)[nH]c2cc(Cl)ccc2c1=O returned Mtb betalactam -9, Mtb H37Rv -17%, YopH inh -11, Arbovirus inh 12 and RecA intein inh 5.5.
COC(=O)c1cc(S(=O)(=O)Nc2nn(C)c3ccccc23)oc1C was read as Mtb betalactam -8, Mtb H37Rv 0% and RecA intein inh -0.4.
`Nc1ccc(-c2nnc(-c3ccccc3)o2)cc1` gave Mtb betalactam -4 and RecA intein inh -0.6.
`Cc1ccc(O)c(CNc2ccccn2)c1` gave Mtb betalactam -2, Mtb H37Rv 2%, YopH inh -30, Arbovirus inh -5 and RecA intein inh -2.3.
Screening COc1ccc(N/C=C/C(=O)c2ccccc2)cc1 returned Mtb betalactam 90 and RecA intein inh 0.8.
Screening O=C(Nc1ncc2c(n1)-c1ccccc1OC2)c1ccc(F)cc1 returned Mtb betalactam 7, Mtb H37Rv 8%, Arbovirus inh 5 and RecA intein inh -1.8.
Screening Cc1ccc(CN(C(=O)COc2ccc([N+](=O)[O-])cc2)C2CCS(=O)(=O)C2)o1 (centres undefined) returned Mtb betalactam 0 and RecA intein inh 4.1.
For CC(C)N1CCc2c(sc(NC(=O)c3ccco3)c2C(N)=O)C1 the results were Mtb betalactam 2 and RecA intein inh -7.4.
For Cc1c(NC(=O)C2Cc3ccccc3CN2C(=O)c2ccco2)c(=O)n(-c2ccccc2)n1C (centres undefined) the results were Mtb betalactam -10, Mtb H37Rv -1%, YopH inh -29, Arbovirus inh 1 and RecA intein inh 1.5.
Screening COP(=O)(OC)C(NS(=O)(=O)c1ccccc1)C(Cl)(Cl)Cl (centres undefined) returned Mtb betalactam -7, Mtb H37Rv 0%, Arbovirus inh 12 and RecA intein inh -4.1.
CCOc1ccc(NC(=O)CN2C(=O)S/C(=C/c3cccn3C)C2=O)cc1 was read as Mtb betalactam -12, Mtb H37Rv 0%, Arbovirus inh -14 and RecA intein inh 5.2.
COc1ccc2c(c1)CC/C(=C\c1ccc(C)o1)C2=O was read as Mtb betalactam 94, Mtb H37Rv 5% and RecA intein inh 4.9.
Cc1cc(CNC(=O)c2cccc([N+](=O)[O-])c2C)c2ccccc2n1 was read as Mtb betalactam -5, Arbovirus inh 10 and RecA intein inh 2.1.
Cn1c(O)c(C2=c3ccccc3=NC2=O)sc1=Nc1ccc(Cl)cc1 was read as Mtb betalactam -6, Mtb H37Rv -2%, YopH inh -21, Arbovirus inh -24 and RecA intein inh 1.8.
`Cc1ccc(NC(=O)CSc2nnc(C)c(=O)[nH]2)cc1C` gave Mtb betalactam 81, Mtb H37Rv 76%, Arbovirus inh 7 and RecA intein inh -0.7.
`CCN(CC)c1ccc(CN(C(=O)c2cccs2)C2CCS(=O)(=O)C2)cc1` (centres undefined) gave Mtb betalactam -2 and RecA intein inh -1.8.
CCOc1ccc(N(C)S(=O)(=O)c2cc(-c3cc(C)no3)ccc2C(C)C)cc1 was read as Mtb betalactam -5 and RecA intein inh 7.9.
`Cc1ccc(N(CC(=O)NC(C)C)C(=O)CCC(=O)Nc2nccs2)cc1` gave Mtb betalactam -8 and RecA intein inh -1.8.
`CCN1CCN(c2cc(C)c3cc(NC(=S)NCc4cccs4)ccc3n2)CC1` gave Mtb betalactam 0, Mtb H37Rv 4%, Arbovirus inh 14 and RecA intein inh 1.7.
For CN(C)C(=O)COc1ncnc2sc(-c3ccccc3)cc12 the results were Mtb betalactam -7 and RecA intein inh -1.5.
Screening O=C(COC(=O)c1cc(S(=O)(=O)N2CCOCC2)ccc1F)NCc1ccco1 returned Mtb betalactam -11 and RecA intein inh 0.6.
`Cc1nc2ccc(NC(=S)N3CCCC3)cc2nc1C` gave Mtb betalactam -1, Mtb H37Rv -2%, Arbovirus inh 2 and RecA intein inh -0.7.
For COCCOc1cc(N(CC(=O)N(C)C)S(=O)(=O)c2ccccc2)c(Cl)cc1Cl the results were Mtb betalactam 1, Mtb H37Rv -4%, Arbovirus inh 5 and RecA intein inh -0.3.
Cc1ccc2c(CC(=O)N(C)c3c(N)n(Cc4ccccc4)c(=O)[nH]c3=O)coc2c1 was read as Mtb betalactam -11 and RecA intein inh -1.3.
Cc1ccc(/C=C/C(=O)Nc2nnc(SCc3ccc(C#N)cc3)s2)o1 was read as Mtb betalactam 4, Mtb H37Rv -5%, YopH inh -31, Arbovirus inh 5 and RecA intein inh 0.3.
Screening COc1cccc(Cn2cc(C(=O)NCCN(C)C)nn2)c1 returned Mtb betalactam -2, Mtb H37Rv -10%, Arbovirus inh 6 and RecA intein inh 2.1.
Screening CC1(C)CC(=O)C(C(=S)Nc2ccc(F)cc2)=C(NCCN2CCOCC2)C1 returned Mtb betalactam -3, Mtb H37Rv -3%, YopH inh -14, Arbovirus inh 3 and RecA intein inh 1.3.
Screening N#Cc1cccc(NC(=O)COC(=O)c2ccccc2Sc2ccccc2C#N)c1 returned Mtb betalactam 0, Mtb H37Rv 11%, YopH inh 0, Arbovirus inh 3 and RecA intein inh 1.3.
For N#Cc1ccc(Cl)cc1NC(=O)COC(=O)c1ccc2c(c1)OCCO2 the results were Mtb betalactam -8, Mtb H37Rv 1%, YopH inh 6, Arbovirus inh 8 and RecA intein inh 2.2.
C/C=C\C=C\C(=O)Nc1cccc(C2=NOC3(C2)C[C@@H](C(N)=O)N(C(=O)C(c2ccccc2)c2ccccc2)C3)c1 (some centres undefined) was read as Mtb betalactam 69, Mtb H37Rv 9% and RecA intein inh 14.
Cc1ccc(-n2cc[nH]c2=S)cc1C was read as Mtb betalactam 3, Mtb H37Rv 0%, YopH inh -13, Arbovirus inh 3 and RecA intein inh -1.4.
CCc1nn(CC(=O)NCCCN2CCN(C)CC2)c(=O)c2cc3sc(C)cc3n12 was read as Mtb betalactam inconclusive and RecA intein inh -2.6.
Cc1cc(C)c(OCC(=O)OC(C)C(=O)NC2CC2)c(C)c1 (centres undefined) was read as Mtb betalactam 4 and RecA intein inh -1.2.
`Cc1cc(=O)oc2cc(OCc3cc4c(cc3Cl)OCO4)ccc12` gave Mtb betalactam 2, Mtb H37Rv -6%, YopH inh -16, Arbovirus inh -19 and RecA intein inh 0.5.
COc1cc(-c2nc(-c3ccncc3)no2)cc(OC)c1OC was read as Mtb betalactam 2, Mtb H37Rv 1%, YopH inh -2, Arbovirus inh -3, RecA intein inh -1.0 and Arbovirus inh repeat 1.
